GALR2 ag – GALR2 (human) receptor agonism; O43603; GALR2-expressing cells, agonist activation read-out; activation, %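 (tested at 5 µM)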; 0.48% of 140,000 active; AID 803;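 active = above mean plus 3 SD of all compounds, about 5% in these data, not always enough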;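 also: 0% = vehicle buffer wells and 100% = reference agonist at full effect; tested in CHO reporter cells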
HSV augment – increases HSV replication in cells | HSV replication augmentation in cells, fold increase | maximum fold increase | 0.005% of 220,000 active | AID 1956;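 active = peak rise of 1.5-fold or more in the series; tested in PC3 cells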;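 also: first round at 10 µM; read as green reporter fluorescence; hits show the peak of a series up to 25 µM; 1 = signal of infected wells without compound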
PKD1 inh – blocks activity of human protein kinase D1 | 0.056% of 200,000 active | inhibition, %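 (about 10 µM by stock and volumes)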 | Q15139 | PKD1 kinase fluorescence polarization assay;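 active = inhibition of 50% or more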;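 also: controls were vehicle for no effect and a reference inhibitor for full effect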
Target sequence (Q15139 whole entry, looked up): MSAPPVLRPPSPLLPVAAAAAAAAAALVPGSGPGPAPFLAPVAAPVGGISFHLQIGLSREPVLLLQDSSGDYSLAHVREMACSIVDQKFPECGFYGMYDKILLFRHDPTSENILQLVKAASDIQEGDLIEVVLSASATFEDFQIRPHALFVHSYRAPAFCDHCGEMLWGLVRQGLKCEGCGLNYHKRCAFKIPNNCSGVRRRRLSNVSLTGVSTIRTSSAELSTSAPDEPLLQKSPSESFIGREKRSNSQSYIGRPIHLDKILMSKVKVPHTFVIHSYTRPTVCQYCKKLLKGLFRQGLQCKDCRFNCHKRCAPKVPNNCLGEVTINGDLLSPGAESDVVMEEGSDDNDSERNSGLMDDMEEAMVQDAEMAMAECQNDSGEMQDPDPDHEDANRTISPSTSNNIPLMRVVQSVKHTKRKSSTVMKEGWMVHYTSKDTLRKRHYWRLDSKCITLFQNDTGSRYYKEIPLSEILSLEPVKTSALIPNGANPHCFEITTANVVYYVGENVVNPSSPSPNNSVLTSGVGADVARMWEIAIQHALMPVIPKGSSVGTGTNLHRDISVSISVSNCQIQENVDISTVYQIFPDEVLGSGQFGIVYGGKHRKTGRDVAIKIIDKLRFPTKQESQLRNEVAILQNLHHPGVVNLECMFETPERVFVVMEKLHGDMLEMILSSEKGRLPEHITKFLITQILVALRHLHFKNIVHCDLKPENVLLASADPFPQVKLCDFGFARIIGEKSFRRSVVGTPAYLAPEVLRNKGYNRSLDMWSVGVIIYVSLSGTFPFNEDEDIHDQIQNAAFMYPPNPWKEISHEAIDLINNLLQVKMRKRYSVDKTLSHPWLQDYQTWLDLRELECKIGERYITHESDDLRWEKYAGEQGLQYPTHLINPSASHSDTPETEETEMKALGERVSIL
RGS16-Gao – regulators of human RGS16-Galphao interaction; O15492+P09471; bead-based flow cytometry RGS16-Galphao binding, fluorescence; actives lie on both sides; binding response (% of control), % at 10 µM; 0.38% of 220,000 active; AID 1441;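 active = below 25% or above 175%, edge rows of some plates excepted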;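 also: Galphao activated by GDP with aluminum fluoride before binding; 100% = wells without compound and 0% = beads without RGS; some results beyond the cut were filed as inactive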
INS promoter inh – TRM-6 insulin promoter activity inhibition; TRM-6 cells (human fetal islet line), insulin promoter-eGFP reporter, imaging; reporter expression induced with tamoxifen; AID 1273; 0.9% of 130,000 active; inhibition, % at 2 µM;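 active = inhibition above the mean plus 3 SD, with well images judged a real hit on visual review, cut at about 60% in these data, passing the limit was not always enough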
INS promoter inh cell count – also measured in INS promoter inh; calls as there; normalized cell count, %; measured here: cell count, toxicity; reference of the scale not given here;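 cells exposed to compound for 48 h; stained nuclei by imaging scaled within each plate; lower means fewer cells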
HSV augment primary fold – recorded beside HSV augment, whose call it bears; fold increase; compound at 10 µM; measured here: primary screen fold increase 10 uM; tested in PC3 cells;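 GFP signal in the first replicate; 1 = infected wells without compound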
An asterisk follows results filed as active; i = inactive; nt = not tested or not shown.

SMILES,GALR2 ag,HSV augment,HSV augment primary fold,PKD1 inh,RGS16-Gao,INS promoter inh,INS promoter inh cell count
Cn1c2c(c(=O)n(C)c1=O)C(c1ccc(Cl)cc1)C(C#N)=C(N)O2 (stereo not drawn),-1.6,i,1,7,89,-62,51
CCCCCCCCC(=O)N/N=C(\C)c1cccnc1,-2.5,i,0.91,-9,102,19,106
O=C(N/N=C/c1ccc([N+](=O)[O-])o1)C(O)c1ccccc1 (stereo not drawn),nt,i,1.1,nt,103,nt,nt
O=C(O/N=C1\CCCc2ccccc21)c1cccs1,nt,i,0.96,-9,99,36,98
OC(CCCN1CCCCC1)(c1ccccc1)c1ccccc1,0.6,i,1.1,-6,96,36,129
O=C(c1ccc(Br)o1)N1CCN(c2ncccn2)CC1,0.3,i,0.74,-5,95,0,162
O=C(CSc1ncn[nH]1)Nc1ccc(OCc2ccccc2)cc1,nt,i,1,-2,105,25,77
COc1cc(NC(=O)c2ccccc2)c(OC)cc1NC(=O)Cc1cccs1,nt,i,0.89,3,109,57,121
CCOc1cc(NC(=O)c2ccco2)c(OCC)cc1NC(=O)COc1ccccc1C,-1.4,i,0.86,-5,nt,-71,130
COc1cccc(S(=O)(=O)NCC(=O)Nc2ccc(C(C)(C)C)cc2)c1,-0.3,i,0.86,6,95,-120,115
CC1CCc2cc(F)ccc2N1C(=O)c1cc2nc(-c3ccco3)cc(C(F)(F)F)n2n1 (stereo not drawn),-1.6,i,1,-14,102,nt,nt
CCOc1ccc(N2CC(C(=O)NC(C)C)CC2=O)cc1 (stereo not drawn),-3.6,i,0.98,-5,100,-27,105
O=C(CCS(=O)(=O)Cc1ccccc1)Nc1nc2c(s1)CCCC2,-0.9,i,0.7,-3,107,-10,131
COCCCNC(=O)CCc1nnc(Cc2ccc(-c3ccccc3)cc2)o1,nt,i,0.93,5,106,nt,nt
COc1ccccc1NS(=O)(=O)c1cc(NC(=O)CNC(=O)c2cc(C)cc(C)c2)ccc1C,-2.0,i,0.84,7,100,-13,89
COC(=O)c1c(NC(C)=O)sc(C(=O)Nc2ccccc2F)c1C,nt,i,0.89,-3,88,nt,nt
CC(C)CNC(=O)COC(=O)CCC(=O)c1cccs1,-0.8,i,1.1,7,98,nt,nt
COc1cc(O)sc1C=Nc1ccc(Cl)cc1Cl,nt,i,1.1,-4,109,nt,nt
O=C(Nc1ccccc1)c1ccccc1OCc1ccc(S(=O)(=O)N2CCOCC2)cc1,nt,i,0.89,-3,97,-12,108
Nn1c(SCC(=O)NC2CCS(=O)(=O)C2)nnc1-c1cccs1 (stereo not drawn),nt,i,1,nt,101,nt,nt

Exported with values under each structure: 2 of the compounds above.
Values in the order – GALR2 ag, HSV augment, HSV augment primary fold, PKD1 inh, RGS16-Gao, INS promoter inh, INS promoter inh cell count
- COC(=O)c1c(NC(C)=O)sc(C(=O)Nc2ccccc2F)c1C
  nt, i, 0.89, -3, 88, nt, nt
- CC(C)CNC(=O)COC(=O)CCC(=O)c1cccs1
  -0.8, i, 1.1, 7, 98, nt, nt

Other compounds.
SMILES,GALR2 ag,HSV augment,HSV augment primary fold,PKD1 inh,RGS16-Gao,INS promoter inh,INS promoter inh cell count
Cc1[nH]n(C)c(=O)c1C(=O)c1c(-c2c(Cl)cccc2Cl)noc1C,nt,i,0.82,nt,102,nt,nt
Cc1ccc(C(=O)Oc2cccc(-n3cnnn3)c2)cc1,nt,i,1,-3,109,40,97
C=CCNC(=S)Nc1cccc([N+](=O)[O-])c1,nt,i,0.97,nt,100,nt,nt
CCn1nnc(NC(=O)CSc2ccc(Cl)cc2)n1,-0.5,i,0.76,-5,nt,nt,nt
CC(CNC(=O)CCc1nnc(CCC2CCCCC2)o1)c1ccccc1 (stereo not drawn),nt,i,0.93,-6,103,nt,nt
CCOC(=O)c1cccc(NC(=O)CN(c2ccc(OC)cc2)S(=O)(=O)c2c(C)noc2C)c1,-1.0,i,0.99,2,101,nt,nt
CSc1nnc(N(CCC#N)CCC#N)s1,-1.8,i,1,-8,71,0,115
CCC(C)[C@H](NC(=O)N1CCCC1)C(=O)OC (stereo partly drawn),-2.1,i,0.87,-9,100,-280,55
O=C(CSc1cccs1)NCCc1ccccc1,-0.9,nt,nt,-8,105,-17,99
CCC(C)(C(=O)NC1CCCC1)N(CC1CCCO1)C(=O)CNC(=O)c1ccccc1 (stereo not drawn),-0.8,i,0.94,2,103,nt,nt
COc1ccc(Cl)cc1NC(=O)CN(C)C1CCCCC1,-0.2,i,1.1,0,99,67,75
CC1CCC(C(C)C)C(OCC[N+](C)(C)C)C1 (stereo not drawn),-0.5,i,1.1,-11,101,15,109
Clc1ccc(Cn2cccc2C2=NCCO2)cc1,-2.2,i,1,7,177,31,100
CCOc1cccc(N2C(=O)CC(n3cnc4ccccc43)C2=O)c1 (stereo not drawn),-3.2,i,1,-4,51,30,88
COC(=O)c1ccc(CSc2nc(N3CCOCC3)c3c(c2C#N)CC(C)(C)OC3)o1,-0.6,i,1.1,-6,86,nt,nt
CCOC(=O)C1CCCN(C(=O)CNC(=O)Cn2ccc3ccccc3c2=O)C1 (stereo not drawn),-0.7,i,0.75,-6,102,nt,nt
CCN(CC)S(=O)(=O)c1ccc(C(=O)C(C#N)c2ccccn2)cc1 (stereo not drawn),-0.6,i,0.94,6,101,73*,71*
COc1ccc(N=C2C(=Nc3ccc(OC)cc3)N(c3ccc(OC)cc3)C(=S)N2C(=O)c2ccc(OC)cc2)cc1,-2.2,i,0.81,2,101,41,81
O=S(=O)(c1cccc(-c2nnco2)c1)N1CCOCC1,nt,i,0.94,-1,97,61,139
Cc1ccc(C)c(N2CCN(C(=S)NC3CCCCC3)CC2)c1,0.9,i,0.54,0,114,-25,56
CC/C(C)=N/Nc1nc(-c2cc3cccc(OC)c3oc2=O)cs1,nt,i,0.92,nt,101,nt,nt
Nc1c(C(=O)NC23CC4CC(CC(C4)C2)C3)sc2nc3c(c(C(F)(F)F)c12)CCC3,-1.3,i,1.1,-5,104,-13,116
Cc1cc(C(=O)Nc2cccnc2)on1,-0.8,i,0.92,-8,101,nt,nt
CC1(C)Cc2c(C#N)c(NCCN3CCOCC3)nc(-c3ccccc3)c2CO1,nt,i,0.91,nt,102,nt,nt
COc1cccc(N2CCN(C(=O)C3CCCN(S(=O)(=O)c4cnc[nH]4)C3)CC2)c1 (stereo not drawn),-2.0,i,1,0,101,nt,nt
CC(CN1CCCCCC1)C(=O)NN (stereo not drawn),nt,i,0.86,-4,104,nt,nt
COCCN(C(=O)Cc1cccs1)c1nnc(-c2ccncc2)s1,-0.6,nt,nt,4,91,3,103
CC(C)NC(=S)NC(=O)c1ccc(-c2ccccc2)cc1,-0.1,i,1.3,3,108,nt,nt
CC(=O)N1CCC(N(CCN2CCOCC2)C(=S)Nc2ccc(C)cc2)CC1,nt,i,0.91,0,101,0,98
CCCC(=O)OC1CC(C)N(C(=O)c2ccccc2)c2ccc(C)cc21 (stereo not drawn),-0.8,i,1,3,104,-365,43
COc1cccc(CN2C(=O)CCC2(C)C(=O)NC2CCCC2)c1 (stereo not drawn),-2.0,i,0.86,-4,109,-29,176
O=C(CN1C(=O)c2cccc3cccc1c23)Nc1cccnc1,-2.0,i,0.98,-9,107,20,190
CCOc1ccc(C(=O)OCCCN(C)C)cc1,0.8,nt,nt,1,108,-8,55
CCN(C(C)=O)c1nc(CCl)cs1,nt,i,1.4,0,92,nt,nt
O=c1c2ccccc2nc(SCc2ccc([N+](=O)[O-])cc2)n1CCCO,0.3,i,0.83,-10,98,nt,nt
CC(=O)c1cc2c(cc1NC(=O)CSc1nc3ccccc3[nH]1)OCO2,-1.0,i,1,3,102,nt,nt
Cc1ccc(-c2csc3ncnc(SCC(N)=O)c23)cc1,nt,i,0.93,-8,99,nt,nt
CC(C)n1c(=S)[nH]c2scc(-c3cccs3)c2c1=O,nt,i,1,nt,88,nt,nt
CCOc1ccc(NC(=O)c2ccccc2NC(=O)CN2CCN(C(C)=O)CC2)cc1,0.7,i,0.97,-4,110,nt,nt
COc1cc(SC)ccc1C(=O)OCC(=O)NC(=O)NC(C)C,nt,i,1,-12,104,33,148
COc1ccc2c(c1)C(C)=CC(C)(C)N2C(=O)C(C)N1C(=O)c2ccccc2C1=O (stereo not drawn),0.5,i,0.81,7,101,-39,118
Nc1nn(-c2ccccc2)nc1C(=O)OCc1ccccc1,nt,i,0.84,nt,112,nt,nt
O=C(O)c1cccc(NC(=S)N/N=C/c2cccnc2)c1,nt,i,1.1,-9,102,-29,124
O=C(CN1CCN(c2ccccn2)CC1)Nc1cccc(S(=O)(=O)N2CCOCC2)c1,nt,i,1.2,nt,83,nt,nt
Cc1ccc(S(=O)(=O)N2CCOCC2)cc1NC(=O)CSc1nnnn1C,nt,i,1.1,-5,103,nt,nt
COc1ccc(/C=N/NC(=O)c2cccnc2)cc1Cn1nc([N+](=O)[O-])c(Br)c1C,nt,i,0.7,-3,100,27,93
O=C(CNC(c1ccccc1)c1ccccc1)Nc1c(F)cccc1F,0.2,i,1,-3,105,-4,98
N#CC1=C(N)OC2=C(C(=O)CC(c3ccccc3)C2)C1c1ccc2c(c1)OCO2 (stereo not drawn),-1.4,i,0.83,1,102,39,88
Cc1c(NC(=O)N(C)C)c(=O)n(-c2ccccc2)n1C,-2.6,i,0.99,3,120,-145,63
CN1C(=O)CC(N2CCC(C(N)=O)CC2)C1=O (stereo not drawn),-0.3,i,0.98,-11,80,-407,104
CCOc1ccc(CN2CCNC(=O)C2CC(=O)O)cc1 (stereo not drawn),nt,i,0.96,4,100,nt,nt
CCNC(=S)N(Cc1cc2cc(C)cc(C)c2[nH]c1=O)C1CCCC1,-0.5,i,0.92,-2,121,-100,60
O=[N+]([O-])c1ccccc1/C=C/CN1CCCCC1,-3.7,i,0.85,-11,104,nt,nt
NC(=O)c1cc2cc(Br)ccc2oc1=NCc1ccccc1,-1.9,i,0.56,-6,103,46,98
COc1ccc(/C=C2/C(=N)N3C(=NC2=O)Sc2cc(S(C)(=O)=O)ccc23)cc1OC,nt,i,0.85,nt,96,nt,nt
CN1CCN(S(=O)(=O)c2ccc(N3CCN(C(c4ccccc4)c4ccccc4)CC3)nc2)CC1,nt,i,1,-8,94,-42,161
CC1=C(C#N)C(/C=N/OCc2ccc(Cl)cc2)CC(=O)N1 (stereo not drawn),nt,i,0.94,1,104,83*,86*
COc1ccccc1N1CCN(CC(=O)c2c[nH]c3ccccc23)CC1,nt,i,1.1,nt,90,nt,nt
CCNC(=S)N(Cc1cccs1)Cc1cc2cc(OCC)ccc2[nH]c1=O,0.8,i,0.94,-2,143,-39,106
CCN(C(=O)CSc1nnc(Cc2ccccc2F)n1N)C1CCS(=O)(=O)C1 (stereo not drawn),-3.2,i,0.83,-7,112,-34,136

Part of the list above, showing only HSV augment primary fold.
structure | HSV augment primary fold
O=[N+]([O-])c1ccccc1/C=C/CN1CCCCC1 | 0.85
CC1=C(C#N)C(/C=N/OCc2ccc(Cl)cc2)CC(=O)N1 (stereo not drawn) | 0.94
CN1CCN(S(=O)(=O)c2ccc(N3CCN(C(c4ccccc4)c4ccccc4)CC3)nc2)CC1 | 1

Remaining list, next part.
SMILES,GALR2 ag,HSV augment,HSV augment primary fold,PKD1 inh,RGS16-Gao,INS promoter inh,INS promoter inh cell count
CCCCC#Cc1ccc2c(c1)COc1c3ccccc3nn1-2,nt,i,1.1,nt,100,nt,nt
O=C(Nc1cccnc1)c1ccc([N+](=O)[O-])cc1Cl,nt,i,1.1,-1,95,0,77
O=C1Nc2ccc(S(=O)(=O)NCCC3=CCCCC3)c3cccc1c23,0.9,i,1,-6,98,nt,nt
CCNc1nc(NC(C)C)nc(Oc2ccc(OCCOc3ccc(C)cc3)nn2)n1,-1.4,i,0.83,-4,114,-71,110
CCCSc1nc2sc3c(c2c(=O)[nH]1)CC(C)CC3 (stereo not drawn),nt,i,0.99,5,99,nt,nt
COc1ccc(C2CC(=O)c3ccccc3O2)cc1 (stereo not drawn),-1.2,i,0.83,-7,103,-14,128
O=c1[nH]ncc2c3ccccc3n(Cc3ccccc3F)c12,0.6,i,0.9,-7,101,nt,nt

Compounds listed so far with a CF3 group (2):
SMILES,GALR2 ag,HSV augment,HSV augment primary fold,PKD1 inh,RGS16-Gao,INS promoter inh,INS promoter inh cell count
CC1CCc2cc(F)ccc2N1C(=O)c1cc2nc(-c3ccco3)cc(C(F)(F)F)n2n1 (stereo not drawn),-1.6,i,1,-14,102,nt,nt
Nc1c(C(=O)NC23CC4CC(CC(C4)C2)C3)sc2nc3c(c(C(F)(F)F)c12)CCC3,-1.3,i,1.1,-5,104,-13,116

High-throughput results (PubChem)
